# Source: PubChem
# Yeast UUG start: modulators of start codon recognition fidelity in yeast | S. cerevisiae UUG-firefly luciferase reporter, luminescence/redox ratio | activity score, % at 18.7 µM | hit rate 0.13% among 350,000 | AID 602363;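 active = replicate mean at a twofold rise or more, about +100% in these data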;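 also: firefly luciferase made from a UUG start codon reports start codon fidelity; reporter light over untreated wells divided by growth signal over untreated wells; some hits fall short of that in this replicate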
# Env fusion inh: blocks HIV Env-driven cell-cell fusion. HeLa-JRFL Env/CEM21 cell fusion, luciferase. inhibition, % at 12.3 µM. hit rate 1.1% among 360,000;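 active = mean replicate inhibition score of at least 50 and every replicate individually at or above 50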;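 also: 0% = plate neutral controls and 100% = maraviroc near 300 nM; one replicate is shown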
# Numbers without * were called inactive; & = joins results of further samples; [ ] = another dose, or the depositor's remark.
no. | smiles | Yeast UUG start | Env fusion inh
1 | COc1ccc(NC(=O)N(C)C[C@H]2OCCCC[C@@H](C)Oc3ccc(NS(=O)(=O)c4ccc(C)cc4)cc3C(=O)N([C@@H](C)CO)C[C@@H]2C)cc1 | 8 | -149[16.7 µM]
2 | COc1ccccc1CNC(=O)C[C@@H]1C[C@H]2c3cc(NS(C)(=O)=O)ccc3O[C@H]2[C@H](CO)O1 | -5 | -15[16.7 µM]
3 | COC(=O)C[C@H]1CC[C@H](NC(=O)c2ccccc2)[C@H](CO)O1 | -19 | 9[16.7 µM]
4 | Cc1noc(C)c1NC(=O)N(C)C[C@H]1Oc2ccc(NS(=O)(=O)c3ccc(Cl)cc3)cc2CC(=O)N([C@@H](C)CO)C[C@@H]1C | 6 | 21[16.7 µM]
5 | COCC#Cc1cnc2c(c1)C(=O)N([C@@H](C)CO)C[C@@H](C)[C@@H](CN(C)C(=O)c1cnccn1)O2 | -5 | 6[16.7 µM]
6 | Cc1ccc(S(=O)(=O)Nc2ccc3c(c2)C(=O)N([C@H](C)CO)C[C@@H](C)[C@H](CN(C)S(=O)(=O)c2c(C)noc2C)OCCCC[C@H](C)O3)cc1 | 2 | -11[16.7 µM]
7 | COc1ccc(S(=O)(=O)N(C)C[C@H]2Oc3ccc(NS(=O)(=O)c4ccccc4)cc3C(=O)N([C@@H](C)CO)C[C@@H]2C)cc1 | -2 | 17[16.7 µM]
8 | C[C@H](CO)N1C[C@H](C)[C@H](CN(C)C(=O)Nc2cccc3ccccc23)Oc2ccc(NS(=O)(=O)c3ccccc3)cc2C1=O | 12 | 2[16.7 µM]
9 | CCC(=O)N1C[C@@H](C)[C@H](OC)CN(C)C(=O)c2cc(NC(=O)c3ccc(F)cc3)ccc2OC[C@H]1C | 12 | -13[16.7 µM]
10 | C[C@H](CO)N1C[C@H](C)[C@H](CN(C)S(=O)(=O)c2cccc(F)c2)Oc2ncccc2C1=O | -4 | -1[16.7 µM]
11 | C[C@@H]1CN([C@H](C)CO)C(=O)c2cc(-c3ccccc3F)cnc2O[C@H]1CN(C)Cc1cccc(C(=O)O)c1 | 0 | -10[16.7 µM]
12 | C[C@@H]1CN([C@H](C)CO)C(=O)c2cccc(NS(=O)(=O)c3cccs3)c2O[C@H]1CN(C)Cc1ccc(C(F)(F)F)cc1 | 45 | 28[16.7 µM]
13 | COc1ccc(NC(=O)Nc2ccc3c(c2)CC(=O)N([C@H](C)CO)C[C@H](C)[C@H](CN(C)C(=O)NC2CCCCC2)O3)cc1 | -2 | 11[16.7 µM]
14 | C[C@H](O)C#Cc1cnc2c(c1)C(=O)N([C@H](C)CO)C[C@@H](C)[C@@H](CN(C)C(=O)CC1CC1)O2 | -14 | -6[16.7 µM]
15 | Cc1ccc(-c2ccc3c(c2)O[C@@H](CN(C)C(=O)Nc2ccc(C(F)(F)F)cc2)[C@@H](C)CN([C@@H](C)CO)S3(=O)=O)cc1 | -14 | 33[16.7 µM]
16 | COc1ccccc1CNC(=O)C[C@@H]1CC[C@@H](NC(=O)CN(C)C)[C@@H](CO)O1 | -18 | -1[16.7 µM]
17 | C[C@@H](NC(=O)C[C@H]1CC[C@@H](NC(=O)C2CC2)[C@H](CO)O1)c1ccccc1 | -11 | -7[16.7 µM]
18 | COc1ccccc1-c1cnc2c(c1)C(=O)N([C@@H](C)CO)C[C@H](C)[C@H](CN(C)C(=O)c1cccnc1)O2 | 3 | 5[16.7 µM]
19 | C[C@H](CO)N1C[C@H](C)[C@@H](CN(C)S(=O)(=O)c2ccccc2)OCCCC[C@H](C)Oc2ccc(NS(=O)(=O)c3ccc(Cl)cc3)cc2C1=O | 11 | -13[16.7 µM]
20 | C[C@@H]1CN([C@@H](C)CO)C(=O)Cc2cc(NS(=O)(=O)c3ccc(Cl)cc3)ccc2O[C@@H]1CN(C)Cc1ccc2c(c1)OCO2 | 0 | 13[16.7 µM]
21 | N#C[C@H]1[C@@H](c2ccc(C3=CCCCC3)cc2)[C@H](CO)N1C(=O)c1ccccn1 | 53 | 1[16.7 µM]
22 | C[C@H](CO)N1C[C@H](C)[C@@H](CN(C)C(=O)Nc2ccc(C(F)(F)F)cc2)Oc2ccc(NS(=O)(=O)c3ccc(Cl)cc3)cc2CC1=O | 14 | -10[16.7 µM]
23 | C[C@H](O)C#Cc1cnc2c(c1)C(=O)N([C@@H](C)CO)C[C@H](C)[C@@H](CN(C)Cc1cccc(F)c1)O2 | -9 | -7[16.7 µM]
24 | CC(C)NC(=O)Nc1ccc2c(c1)CC(=O)N([C@H](C)CO)C[C@H](C)[C@H](CN(C)C(=O)Nc1ccc3c(c1)OCO3)O2 | 6 | 0[16.7 µM]
25 | O=C(C[C@H]1C=C[C@@H](NS(=O)(=O)c2ccc(F)cc2)[C@@H](CO)O1)NCc1ccc(Cl)c(Cl)c1 | 8 | 41[16.7 µM]
26 | C[C@@H]1CN([C@H](C)CO)C(=O)c2cccc(NS(=O)(=O)c3ccc(Cl)cc3)c2O[C@H]1CN(C)S(=O)(=O)c1ccc(Cl)cc1 | -3 | -26[16.7 µM]
27 | C[C@@H]1CN([C@H](C)CO)S(=O)(=O)c2ccc(C3=CCCC3)cc2O[C@@H]1CN(C)C(=O)C1CCCCC1 | 11 | 10[16.7 µM]
28 | C[C@@H]1CN([C@H](C)CO)C(=O)CCCn2nncc2CO[C@H]1CN(C)C(=O)Nc1cccc(Oc2ccccn2)c1 | -8&-9 | 32
29 | C[C@@H]1CCCCO[C@H](CN(C)S(=O)(=O)c2cn(C)cn2)[C@@H](C)CN([C@@H](C)CO)C(=O)c2cc(NC(=O)Nc3cccc4ccccc34)ccc2O1 | 6 | -5[16.7 µM]
30 | COCC#Cc1ccc2c(c1)O[C@H](CN(C)C(C)=O)[C@H](C)CN([C@@H](C)CO)S2(=O)=O | -9 | 3[16.7 µM]
31 | CCCN(C)C[C@@H]1OCCCC[C@@H](C)Oc2ccc(NC(=O)Nc3ccc(C(F)(F)F)cc3)cc2C(=O)N([C@H](C)CO)C[C@@H]1C | 17 | 12[16.7 µM]
32 | Cc1noc(C)c1NC(=O)N(C)C[C@H]1OCCCC[C@@H](C)Oc2ccc(NC(=O)CCC(F)(F)F)cc2C(=O)N([C@H](C)CO)C[C@@H]1C | -7 | -1[16.7 µM]
33 | C[C@@H]1CN([C@@H](C)CO)S(=O)(=O)c2ccc(-c3ccncc3)cc2O[C@@H]1CN(C)Cc1ccc(Oc2ccccc2)cc1 | 10 | 43[16.7 µM]
34 | Cc1ccc(S(=O)(=O)Nc2ccc3c(c2)C(=O)N([C@H](C)CO)C[C@@H](C)[C@@H](CN(C)C(=O)c2ccncc2)OCCCC[C@H](C)O3)cc1 | -7 | -16[16.7 µM]
35 | COc1cccc(S(=O)(=O)N[C@H]2C=C[C@@H](CC(=O)NC3CCC3)O[C@H]2CO)c1 | -5 | -4[16.7 µM]
36 | CC(C)NC(=O)N(C)C[C@H]1Oc2c(NC(=O)Nc3ccc(C(F)(F)F)cc3)cccc2C(=O)N([C@@H](C)CO)C[C@@H]1C | 24 | 14[16.7 µM]
37 | COc1ccc(S(=O)(=O)N(C)C[C@@H]2OCCCC[C@H](C)Oc3ccc(N(C)C)cc3C(=O)N([C@@H](C)CO)C[C@@H]2C)cc1 | 9 | 4[16.7 µM]
38 | O=C(C[C@H]1CC[C@H](NC(=O)NC2CCCCC2)[C@@H](CO)O1)NCc1ccc(Cl)cc1 | -3 | -10[16.7 µM]
39 | C[C@@H]1CN([C@H](C)CO)C(=O)Cc2cc(NC(=O)Nc3ccccc3)ccc2O[C@@H]1CN(C)C(=O)Nc1ccc(F)cc1 | 2 | 14[16.7 µM]
40 | CO[C@@H]1CN(C)C(=O)c2cc(NS(C)(=O)=O)ccc2OC[C@@H](C)N(C(=O)CC2CC2)C[C@H]1C | -2 | 4[16.7 µM]
41 | C[C@H]1CN([C@@H](C)CO)C(=O)c2cc(C3=CCCCC3)cnc2O[C@@H]1CN(C)C(=O)c1cccc(F)c1 | 31 | 6[16.7 µM]
42 | COc1ccc(NC(=O)Nc2cccc3c2O[C@H](CN(C)C(=O)Nc2ccccc2)[C@@H](C)CN([C@@H](C)CO)C3=O)cc1 | 15 | 3[16.7 µM]
43 | C[C@@H]1CCCCO[C@@H](CN(C)C(=O)NC2CCCCC2)[C@H](C)CN([C@H](C)CO)C(=O)c2cc(NS(=O)(=O)c3cccs3)ccc2O1 | 7 | -19[16.7 µM]
44 | C[C@H]1CN([C@@H](C)CO)C(=O)c2cc(N(C)C)ccc2O[C@H]1CN(C)C(=O)Nc1ccc(F)cc1 | 10 | 18[16.7 µM]
45 | C[C@H](CO)N1C[C@H](C)[C@H](CN(C)C(=O)NC2CCCC2)Oc2ncc(-c3ccccc3F)cc2C1=O | 12 | 4[16.7 µM]
46 | C[C@@H]1CN([C@@H](C)CO)C(=O)c2cc(C3=CCCC3)cnc2O[C@H]1CN(C)Cc1ccc(F)cc1 | -2 | 14[16.7 µM]
47 | CC(C)C#Cc1ccc2c(c1)O[C@H](CN(C)Cc1ccncc1)[C@@H](C)CN([C@@H](C)CO)S2(=O)=O | -4 | 30[16.7 µM]
48 | C[C@@H]1CN([C@H](C)CO)C(=O)c2cc(NC(=O)NC3CCCCC3)ccc2O[C@@H]1CN(C)Cc1ccncc1 | -12 | 11[16.7 µM]

# 11 structures out of the list, ordered by number of heavy atoms, ascending.
no. | smiles | Yeast UUG start | Env fusion inh
35 | COc1cccc(S(=O)(=O)N[C@H]2C=C[C@@H](CC(=O)NC3CCC3)O[C@H]2CO)c1 | -5 | -4[16.7 µM]
38 | O=C(C[C@H]1CC[C@H](NC(=O)NC2CCCCC2)[C@@H](CO)O1)NCc1ccc(Cl)cc1 | -3 | -10[16.7 µM]
40 | CO[C@@H]1CN(C)C(=O)c2cc(NS(C)(=O)=O)ccc2OC[C@@H](C)N(C(=O)CC2CC2)C[C@H]1C | -2 | 4[16.7 µM]
44 | C[C@H]1CN([C@@H](C)CO)C(=O)c2cc(N(C)C)ccc2O[C@H]1CN(C)C(=O)Nc1ccc(F)cc1 | 10 | 18[16.7 µM]
45 | C[C@H](CO)N1C[C@H](C)[C@H](CN(C)C(=O)NC2CCCC2)Oc2ncc(-c3ccccc3F)cc2C1=O | 12 | 4[16.7 µM]
48 | C[C@@H]1CN([C@H](C)CO)C(=O)c2cc(NC(=O)NC3CCCCC3)ccc2O[C@@H]1CN(C)Cc1ccncc1 | -12 | 11[16.7 µM]
36 | CC(C)NC(=O)N(C)C[C@H]1Oc2c(NC(=O)Nc3ccc(C(F)(F)F)cc3)cccc2C(=O)N([C@@H](C)CO)C[C@@H]1C | 24 | 14[16.7 µM]
33 | C[C@@H]1CN([C@@H](C)CO)S(=O)(=O)c2ccc(-c3ccncc3)cc2O[C@@H]1CN(C)Cc1ccc(Oc2ccccc2)cc1 | 10 | 43[16.7 µM]
31 | CCCN(C)C[C@@H]1OCCCC[C@@H](C)Oc2ccc(NC(=O)Nc3ccc(C(F)(F)F)cc3)cc2C(=O)N([C@H](C)CO)C[C@@H]1C | 17 | 12[16.7 µM]
43 | C[C@@H]1CCCCO[C@@H](CN(C)C(=O)NC2CCCCC2)[C@H](C)CN([C@H](C)CO)C(=O)c2cc(NS(=O)(=O)c3cccs3)ccc2O1 | 7 | -19[16.7 µM]
32 | Cc1noc(C)c1NC(=O)N(C)C[C@H]1OCCCC[C@@H](C)Oc2ccc(NC(=O)CCC(F)(F)F)cc2C(=O)N([C@H](C)CO)C[C@@H]1C | -7 | -1[16.7 µM]

# An excerpt. The share of hits here may be higher or lower than overall.
